Mtb hypoxia rep – reduces hypoxia-regulated biosensor signal in M. tuberculosis; M. tuberculosis hypoxia-regulated fluorescent reporter, fluorescence; fluorescence inhibition, % (no concentration beside the values); 300,000 compounds, 0.1% hits; AID 1159583;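 active = 35 to 45% if threefold the growth effect, above 45% if 1.5-fold the growth effect; inactive = the rest, general growth blockers included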;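 note: wells of about 50 µL received 100 nL stock; 0% = vehicle wells and 100% = reference inhibitor wells; whole bacteria with a GFP reporter of the hypoxia response; strong numbers were not always called active; many hits fall short of the cut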
Sa ugtP lethal – growth inhibition of S. aureus ugtP deletion strain; S. aureus RN4220 ugtP deletion, OD600 growth, 16 h; some inactives read as strong as hits; AID 1259309; growth inhibition, % (test concentration not listed); 330,000 compounds, 0.54% hits;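 active = z-score under -3 and OD600 up to 0.15 on both plates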;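 note: plate controls were untreated wells for no effect and antibiotic for full effect; wells of about 80 µL received 100 nL stock; the first replicate is given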
BJeLR viability – BJeLR cell viability loss. BJeLR (HRASV12) viability, CellTiter-Glo ATP luminescence, 48 h; reference of the scale not given here. inhibition, % (concentration not given with the values). 300,000 compounds, 0.17% hits. AID 1554;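 active = replicate mean above 50%; inconclusive = above 50% but judged a plate artefact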;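 note: 50 nL library stock added to about 25 µL; numbers are from one replicate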
Bead autofluor – compound fluorescence in toxin protease inhibitor counterscreen. compound autofluorescence counterscreen, microsphere flow cytometry; active compounds read high. fluorescence intensity (test concentration not listed). 360,000 compounds, 3.1% hits. AID 624483;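 active = at least 3 SD above the mean of all compounds, about 16000 in these data; inconclusive = too few beads counted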;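 note: 100 nL of 1 mM stock went into each well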
RN4220 kill – kills Staphylococcus aureus RN4220 | S. aureus RN4220 growth, OD600, 16 h | 330,000 compounds, 0.33% hits | inhibition, % (concentration not given with the values);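 active = z-score of -3 or lower and OD600 up to 0.18 on both plates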;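 note: plate controls were untreated cells for no effect and reference antibiotic for full effect; stock transfer was 100 nL into about 80 µL; one replicate is shown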
PrP UTR inh – inhibition of PrP 5' UTR reporter expression; cell-based PrP 5' UTR mRNA reporter, plate reader; inhibition, % (test concentration not listed); 340,000 compounds, 0.35% hits;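 active = every replicate at 50% or more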;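 note: 0 = median of the neutral control wells; tested in H4 reporter cells; numbers are from one replicate; inactives centre near -14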
Mtb hypoxia rep growth – second read-out of Mtb hypoxia rep, no call of its own (marks repeat the call); growth inhibition, %; measured here: M. tuberculosis growth (absorbance);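 0% = vehicle and 100% = reference antibiotic; read after six days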
* = called active by the depositor; ? = inconclusive; nt = not tested or not shown.

no.	SMILES	Mtb hypoxia rep	Mtb hypoxia rep growth	Sa ugtP lethal	BJeLR viability	Bead autofluor	RN4220 kill	PrP UTR inh
1	CC(=O)c1cccc(N/C=C\C(=O)c2ccc(C)cc2)c1	0	3	-10	-3	1990	0.5	-57
2	O=C(Nc1ccc(Cl)cc1)Nc1ccccc1C(=O)NCc1ccco1	19	7	4	0	10630	3.6	-41
3	Cc1ccc2nc(-c3cccc(N)c3)[nH]c2c1	3	7	-4	12	3070	4.8	-2
4	COC(=O)NN=Cc1cc(OC)c(O)c([N+](=O)[O-])c1	20	17	-4	nt	nt	4.8	nt
5	CS(=O)(=O)N1CCN(c2ccccc2NC(=O)c2ccc(-c3ccc(Cl)cc3Cl)o2)CC1	3	3	5	-6	2793	-19	-16
6	CCc1c(C)c(C#N)c2nc3ccccc3n2c1NCC1CCCO1 (configuration not stated)	11	16	5	5	9497	2.1	-13
7	CCc1ccc(NC(=O)CSc2nc3c(c(=O)n(C)c(=O)n3C)n2C)cc1	nt	nt	3	-3	6148	2.5	-21
8	CCN(CC(=O)Nc1c(F)cccc1F)C(=O)c1ccc(N2C(=O)c3ccccc3C2=O)cc1	-4	-6	2	4	5086	5.0	-7
9	CCCOc1ccc(C(=O)CCN2CCCCC2)cc1	0	4	-8	-6	2727	-17	0
10	C/C(=N\NC(=O)c1c(C)nc2ccccn12)c1ccc(N2CCOCC2)cc1	nt	nt	nt	-16	2478	nt	-15
11	C/C(=N/NS(=O)(=O)c1ccc(F)cc1)c1ccncc1	nt	nt	nt	5	5837	nt	-1
12	COc1ccccc1NC(=O)c1ccc(NC(=O)COC(=O)C2CCCO2)cc1 (configuration not stated)	-3	7	-2	nt	4667	0.4	-28
13	CN(C)c1cc(-c2ccc(Cl)cc2)oc(=O)c1Cl	15	-2	-1	8	3801	5.5	-8
14	O=C(c1cc(Cl)ccc1O)N1CCN(S(=O)(=O)Cc2ccccc2)CC1	7	7	6	nt	?	9.3	-10
15	CC1=CC2(C#N)C3(N=C(N)C2(C#N)C(c2ccccc2)N1)OCCO3 (configuration not stated)	1	5	2	nt	2386	-11	-5
16	O=C(COc1ccccc1[N+](=O)[O-])NN=Cc1ccc(O)cc1	10	4	7	nt	nt	5.8	nt
17	O=C(CNC(=O)c1cc2c(s1)CCC2)Nc1ccccc1Br	1	17	-1	4	24081*	10	-31
18	CC1Cc2ccccc2N1C1=NS(=O)(=O)c2ccccc21 (configuration not stated)	7	5	2	-12	10005	2.2	-34
19	COc1ccccc1-n1cnc2c(c1=O)c1nc3ccccc3nc1n2-c1ccc(C)c(C)c1	-17	0	9	2	2074	-1.3	0
20	Cc1ccc(Nc2ncc(C(=O)NCCCN3CCN(C)CC3)c3ccccc23)cc1Cl	15	6	1	2	4903	2.3	-17
21	Fc1cccc(Nc2nc3ccccc3n3nnnc23)c1	4	2	12	-6	4407	1.6	-14
22	N/C(=N\NC(=O)c1cccc(F)c1)c1cc2ccccc2oc1=O	-4	-5	0	10	4308	3.2	-8
23	CC(C)C(=O)N1CCC(n2nccc2NC(=O)CCOc2ccccc2)CC1	-3	-1	0	6	?	-3.2	-18
24	COc1cccc(NC(=O)N[C@@H](Cc2ccccc2)C(=O)O)c1	3	-5	2	-4	2400	-8.9	-15
25	Cc1ccc2cc(CN(Cc3ccc(F)cc3)Cc3nnnn3C3CCCC3)c(=O)[nH]c2c1	1	7	-19	-2	8080	4.2	-11
26	c1ccc(C2NCc3ccccc3-n3cccc32)cc1 (configuration not stated)	6	3	7	12	4436	8.5	-7
27	O=C1OC(=O)c2cc([N+](=O)[O-])ccc21	-8	6	2	nt	4191	1.7	6
28	Cc1ccc(C(=O)Nc2c(C(=O)N3CCOCC3)cnn2-c2ccccc2)cc1	nt	nt	-12	9	2366	-3.4	-13
29	C=CCn1c(-c2ccccc2)ccc(C#N)c1=O	18	9	7	4	5654	17	-12
30	COc1cccc2cc(C(C)N(CCCN3CCOCC3)C(=S)Nc3cc(C)ccc3C)oc12 (configuration not stated)	6	4	-5	-4	4359	0.9	-26
31	CCC(=O)Nc1ccc(C(=O)OCC(=O)c2ccc(C)c([N+](=O)[O-])c2)cc1	7	9	20	3	4440	5.9	2
32	O=C(O)c1cccc(N2CCCCS2(=O)=O)c1	6	7	7	-3	3204	7.7	-6
33	CN(C)c1ncc(CN2CCC(C(=O)Nc3ccc(-n4cccn4)cc3)CC2)s1	-1	9	0	-4	5273	5.1	-1
34	O=S(=O)(c1cccc(Cl)c1)N1CCN(S(=O)(=O)c2ccc3c(c2)OCCO3)CC1	7	-5	2	nt	4097	-1.8	-38
35	Cc1cc(C)nc(NN2C(=O)C=CC2=O)n1	10	-2	-5	4	3943	-0.5	4
36	O=C(O/N=C(/c1ccccc1)c1ccncc1)c1ccccc1[N+](=O)[O-]	nt	nt	nt	3	4042	nt	-2
37	CCOC(=O)c1sc(NC(=O)CSc2nc(C)cc(C)c2C#N)c(C#N)c1C	nt	nt	-7	4	3979	-1.1	-84
38	CCN(CC)S(=O)(=O)c1ccc(N2CCN(C)CC2)c(NC(=O)Nc2ccccc2F)c1	5	0	6	-1	3143	4.0	-10
39	CCN1CCN(C(=O)c2cc3c(-c4ccc(Cl)cc4)nn(C)c3s2)CC1	nt	nt	9	1	4078	1.2	0
40	O=C(O)Cn1c(=O)c2cccn2c2ccccc21	16	7	9	0	3551	3.8	-15
41	CC(=O)Oc1ccc2c(=O)c(Oc3ccccc3)coc2c1OC(C)=O	2	-1	-2	-25	2428	1.0	-12
42	CC1CC(=O)Nc2ccccc2N1S(=O)(=O)c1ccc(C#N)cc1 (configuration not stated)	-14	-4	-4	9	4829	1.5	-5
43	CCN(CC)S(=O)(=O)c1ccc(NC(=O)C2CCCN(C(=O)c3ccc(Cl)cc3)C2)cc1 (configuration not stated)	4	2	-12	3	7771	4.2	-54
44	COc1ccc(NC(=S)N(CCCN2CCN(C)CC2)Cc2cccs2)cc1	5	12	2	18	10560	2.5	-18
45	Cc1ccc(-c2cc(-c3ccc(F)cc3)n[nH]2)c(O)c1	8	-3	48	5	3656	-13	-63
46	NC(=O)C(CC(=O)O)NC(=O)C1CCOc2c(I)cc([N+](=O)[O-])cc2C(=O)NC(CCC(=O)O)C(=O)NC(CO)C(=O)N1 (configuration not stated)	15	5	1	nt	nt	8.5	nt
47	COc1ccc(CC(NC(C)=O)C(=O)NC2CCN(C(=O)c3ccc(OC)c(OC)c3)CC2)cc1OC (configuration not stated)	3	7	6	-6	4210	5.5	5
48	COc1cc(NC(=O)c2csc3c2CCCC3)ncn1	9	7	7	6	12835	-1.5	-74
49	CC(C)(C)NC(=O)C1CCN(S(=O)(=O)c2cccc(C(F)(F)F)c2)CC1	-8	-2	2	-5	4249	7.1	-13
50	COc1ccc(C(=O)NC(=O)Nc2ncccc2C)cc1	8	-1	7	-13	?	7.8	-43

Arranged by formula weight (highest first): 15 of the compounds above.
no.	SMILES	Mtb hypoxia rep	Mtb hypoxia rep growth	Sa ugtP lethal	BJeLR viability	Bead autofluor	RN4220 kill	PrP UTR inh
46	NC(=O)C(CC(=O)O)NC(=O)C1CCOc2c(I)cc([N+](=O)[O-])cc2C(=O)NC(CCC(=O)O)C(=O)NC(CO)C(=O)N1 (configuration not stated)	15	5	1	nt	nt	8.5	nt
43	CCN(CC)S(=O)(=O)c1ccc(NC(=O)C2CCCN(C(=O)c3ccc(Cl)cc3)C2)cc1 (configuration not stated)	4	2	-12	3	7771	4.2	-54
38	CCN(CC)S(=O)(=O)c1ccc(N2CCN(C)CC2)c(NC(=O)Nc2ccccc2F)c1	5	0	6	-1	3143	4.0	-10
34	O=S(=O)(c1cccc(Cl)c1)N1CCN(S(=O)(=O)c2ccc3c(c2)OCCO3)CC1	7	-5	2	nt	4097	-1.8	-38
44	COc1ccc(NC(=S)N(CCCN2CCN(C)CC2)Cc2cccs2)cc1	5	12	2	18	10560	2.5	-18
37	CCOC(=O)c1sc(NC(=O)CSc2nc(C)cc(C)c2C#N)c(C#N)c1C	nt	nt	-7	4	3979	-1.1	-84
49	CC(C)(C)NC(=O)C1CCN(S(=O)(=O)c2cccc(C(F)(F)F)c2)CC1	-8	-2	2	-5	4249	7.1	-13
39	CCN1CCN(C(=O)c2cc3c(-c4ccc(Cl)cc4)nn(C)c3s2)CC1	nt	nt	9	1	4078	1.2	0
41	CC(=O)Oc1ccc2c(=O)c(Oc3ccccc3)coc2c1OC(C)=O	2	-1	-2	-25	2428	1.0	-12
36	O=C(O/N=C(/c1ccccc1)c1ccncc1)c1ccccc1[N+](=O)[O-]	nt	nt	nt	3	4042	nt	-2
42	CC1CC(=O)Nc2ccccc2N1S(=O)(=O)c1ccc(C#N)cc1 (configuration not stated)	-14	-4	-4	9	4829	1.5	-5
48	COc1cc(NC(=O)c2csc3c2CCCC3)ncn1	9	7	7	6	12835	-1.5	-74
50	COc1ccc(C(=O)NC(=O)Nc2ncccc2C)cc1	8	-1	7	-13	?	7.8	-43
45	Cc1ccc(-c2cc(-c3ccc(F)cc3)n[nH]2)c(O)c1	8	-3	48	5	3656	-13	-63
35	Cc1cc(C)nc(NN2C(=O)C=CC2=O)n1	10	-2	-5	4	3943	-0.5	4

Next section
no.	SMILES	Mtb hypoxia rep	Mtb hypoxia rep growth	Sa ugtP lethal	BJeLR viability	Bead autofluor	RN4220 kill	PrP UTR inh
51	O=C(CSc1ccc(Cl)cc1)Nc1ccc(N2CCN(C(=O)c3ccco3)CC2)cc1	1	3	4	-7	2648	17	-27
52	Cc1c(/C=C/C(=O)c2ccc(C(C)C)cc2)cnn1C	nt	nt	nt	9	3589	nt	-50
53	CC(=O)N1CCc2cc(S(=O)(=O)CCC(=O)NCc3ccc(C)o3)ccc21	10	2	12	8	5693	4.2	-35
54	CCCCCC(=O)NNC(=S)NC(=O)c1ccccc1[N+](=O)[O-]	8	9	18	3	3227	21	-37
55	COc1ccc(N(Cc2cc3ccccc3[nH]c2=O)C(=O)C2CCCO2)cc1 (configuration not stated)	nt	nt	5	1	5199	3.1	-26
56	O=C(CC(C(=O)N1CCc2ccccc21)n1ccnc1)NCc1cccnc1 (configuration not stated)	-5	-6	8	-18	11226	5.4	-36
57	COCCn1c(N)c(S(=O)(=O)c2cccs2)c2nc3ccccc3nc21	-5	-3	5	2	9865	2.6	-18
58	CCCOc1ccc(N2C(=O)CC(N(CCC)C(=O)CCC(=O)O)C2=O)cc1 (configuration not stated)	nt	nt	7	-4	3818	2.5	-10
59	Cc1ccc(-n2c(SCC(=O)Nc3ccc4c(c3)OCO4)nnc2-c2ccoc2C)cc1	nt	nt	26	4	3933	4.4	-20
60	CCN(CC)S(=O)(=O)c1ccc(Cl)c(C(=O)Oc2cccc(-c3cnc4ccccc4n3)c2)c1	nt	nt	-8	-12	2304	-1.5	-51

Arranged by length of the SMILES (rising): part of the list above
no.	SMILES	Mtb hypoxia rep	Mtb hypoxia rep growth	Sa ugtP lethal	BJeLR viability	Bead autofluor	RN4220 kill	PrP UTR inh
52	Cc1c(/C=C/C(=O)c2ccc(C(C)C)cc2)cnn1C	nt	nt	nt	9	3589	nt	-50
57	COCCn1c(N)c(S(=O)(=O)c2cccs2)c2nc3ccccc3nc21	-5	-3	5	2	9865	2.6	-18
51	O=C(CSc1ccc(Cl)cc1)Nc1ccc(N2CCN(C(=O)c3ccco3)CC2)cc1	1	3	4	-7	2648	17	-27

New compounds follow
no.	SMILES	Mtb hypoxia rep	Mtb hypoxia rep growth	Sa ugtP lethal	BJeLR viability	Bead autofluor	RN4220 kill	PrP UTR inh
61	CCOC(=O)C1=C(N)Oc2cc(O)ccc2C1c1ccc(F)cc1F (configuration not stated)	-3	2	-24	7	3764	-13	-11
62	Cc1ccc(-c2cc(-c3ccc(C)o3)nc(N)c2C#N)cc1	1	6	0	4	2733	28	7
63	Cc1ncc(CN2CCC(C(=O)Nc3cccc(-c4cscn4)c3)CC2)cn1	-1	5	1	11	6049	0.3	4
64	CCN(CC(=O)NC1CCS(=O)(=O)C1)C(=O)C(c1ccccc1)c1ccccc1 (configuration not stated)	4	10	-4	-3	8885	1.0	-12
65	N#CC1=C(N)N2C(=C(C#N)C13CCN(Cc1ccccc1)CC3)Nc1ccccc12	11	11	1	6	8377	1.3	-14
